PABP FP inh: blocks human PABP binding to poly(A) RNA | P11940 | fluorescence polarization | inhibition, % at 35 µM | 1% of 290,000 active;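 active = 50% or more with normal probe brightness, or confirmed in later tests; inconclusive = above 50% with abnormal brightness, or retests that disagree; inactive = below 50% or failed in later tests; about a fifth of its hits are not listed in these tables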;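 also: calls also rest on retests at 20 µM and on dose response follow-up; controls were probe without protein and protein plus probe with vehicle; some compounds called inactive have numbers as strong as hits; many hits fall short of the cut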
eIF4H FP inh: inhibitors of RNA binding by human eIF4H. Q15056. eIF4H fluorescence polarization binding assay. inhibition, % at 35 µM. 0.94% of 290,000 active. AID 2012;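 active = 50% or more with normal probe brightness, or confirmed in later tests; inconclusive = above 50% with abnormal brightness, or retests that disagree; inactive = below 50% or failed in later tests; about a fifth of its hits are not listed in these tables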;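 also: calls also rest on retests at 20 µM and on dose response follow-up; 0% = protein and probe with vehicle and 100% = probe without protein; strong numbers were not always called active; many hits fall short of the cut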
Rce1 inhib: inhibitors of yeast Ras-converting enzyme; 0.27% of 290,000 active; yeast membranes, quenched prenylated peptide cleavage fluorescence; AID 2563; calls only; Q03530;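 active = fall in fluorescence gain of 50% or more versus controls, with final raw signal at or below 3038400; inconclusive = same 50% fall but final raw signal above 3038400; inactive = fall in fluorescence gain under 50%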;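 also: plate controls were neutral control wells for no effect and wells lacking membranes for full effect; tested at 10 µM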
Target sequence (Q03530 whole entry, looked up): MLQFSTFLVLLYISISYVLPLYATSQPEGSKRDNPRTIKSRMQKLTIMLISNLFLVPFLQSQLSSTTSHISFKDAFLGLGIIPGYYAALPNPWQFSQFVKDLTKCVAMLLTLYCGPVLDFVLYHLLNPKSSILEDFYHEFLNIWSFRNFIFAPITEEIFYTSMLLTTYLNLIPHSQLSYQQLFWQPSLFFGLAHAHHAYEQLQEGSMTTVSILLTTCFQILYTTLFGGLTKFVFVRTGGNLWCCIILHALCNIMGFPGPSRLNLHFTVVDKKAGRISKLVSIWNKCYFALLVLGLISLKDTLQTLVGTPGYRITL
CSC inhib: blocks cancer stem cells | 1.1% of 300,000 active | AID 2717 | inhibition, % at 7.5 µM | cancer stem cell-like cells viability, luminescence;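 active = mean at 75% or more and at least half the replicates too; inconclusive = mean and replicates disagree; tested in HMLE shEcad cells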;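 also: 0% = median of negative and 100% = median of positive control wells; the first replicate is given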
Yeast UUG start: alters start codon recognition fidelity in yeast. S. cerevisiae UUG-firefly luciferase reporter, luminescence/redox ratio. activity score, % at 18.7 µM. 0.13% of 350,000 active;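 active = replicate mean at a twofold rise or more, about +100% in these data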;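 also: firefly luciferase made from a UUG start codon reports start codon fidelity; reporter light over untreated wells divided by growth signal over untreated wells; some hits fall short of that in this replicate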
MT1-MMP act inh: inhibitors of human MT1-MMP activation. 0.061% of 360,000 active. P50281. GFP/RFP ratio change, % at 20 µM. HT1080 RFP-PRO-GFP cells, GFP/RFP ratio fluorescence, overnight; percent of plate control window, DMSO zero;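 active = GFP/RFP ratio change of at least 30% with cell ATP level not reduced by more than half and red fluorescence within 50% of control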; also: strong numbers were not always called active
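Test system: HT1080 RFP-PRO-GFP cells; Benchmarks: DMSO and RFP-L50D-GFP cell wells; Timing: cells overnight before dosing, compound overnight, 37 °C, 5% CO2; Compound: one 20 µM compound dose with 1% DMSO; Read-out: GFP/RFP fluorescence ratio.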
HIV Env fusion: blocks HIV Env-driven cell-cell fusion; HeLa-JRFL Env/CEM21 cell fusion, luciferase; inhibition, % at 12.3 µM; 1.1% of 360,000 active; AID 651610;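 active = mean replicate inhibition score of at least 50 and every replicate individually at or above 50; inconclusive = only one of the two criteria met; inactive = mean below 50 and not all replicates reaching 50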;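 also: 0% = plate neutral controls and 100% = maraviroc near 300 nM; one replicate is shown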
eIF4H FP inh retest: second read-out of eIF4H FP inh, no call of its own (marks repeat the call); inhibition, %; compound at 20 µM; confirmation average;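 mean of two retest wells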
PABP FP inh retest: recorded beside PABP FP inh, whose call it bears; inhibition, %; compound at 20 µM; confirmation repeats;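 mean of two retest wells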
MT1-MMP act inh RFP: further read-out of MT1-MMP act inh, marked with its call; RFP signal change, %; measured here: RFP expression control read;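 0 = vehicle wells; hits needed this value within 50% of zero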
* = called active by the depositor; i = inactive; u = inconclusive; x = no result given; & = joins results of further samples; ! = not active in a repeat; [ ] = remark or other dose.

SMILES | PABP FP inh | eIF4H FP inh | Rce1 inhib | CSC inhib | Yeast UUG start | MT1-MMP act inh | MT1-MMP act inh RFP | HIV Env fusion | others
CC(C)c1ccc(Nc2cnn(C34CC5CC(CC(CC(=O)O)(C5)C3)C4)c(=O)c2Cl)cc1 | 0 | -1 | i | x | -17 | 5 | -1 | x
O=C(O)CC1(CC(=O)NCc2csc(-c3cccs3)n2)CCCCC1 | 2 | -4 | i | 0 | -6 | 2 | 1 | -7
COc1ccc(NC(=O)N2CCC(n3nnc4cc(C)ccc43)CC2)cc1 | 9 | -4 | x | 9 | -19 | 2 | -1 | -83
COc1ccc(C(CC(=O)N2CCCCC2)C(C)C)cc1 (stereo not given) | -6 | 4 | i | 1 | x | -1 | -1 | 5
Cc1cc(=O)oc2cc(OCC(=O)OCC(=O)N(C)C3CCS(=O)(=O)C3)ccc12 (stereo not given) | 9 | 1 | i | 17 | x | 2 | 6 | -4
CCCCc1ccc(NC(=O)CN2NS(=O)(=O)c3ccccc3C2=O)cc1 | 2 | -2 | i | 17 | -6 | -3 | 2 | 12
CCc1ccc(NC(=O)Nc2c(C)n(C)n(-c3ccccc3)c2=O)cc1 | -2 | 0 | i | 6 | -5 | 6 | 4 | 9
CC(C)OC(=O)C1C2C=CC3(CN(CC4CCCO4)C(=O)C13)O2 (stereo not given) | -7 | -4 | i | 8 | -12 | -3 | 1 | 4
CC(C)C[C@H](NC(=O)c1nc[nH]c1C(=O)N1CCN(c2ccccc2)CC1)C(=O)OC(C)(C)C | 0 | -5 | i | 3 | -17 | 9 | -4 | x
COc1ccc2[nH]c(C(=O)O)c(NS(=O)(=O)c3ccc(Cl)s3)c2c1 | 6 | -5 | i | -7 | -9 | -8 | 1 | 5
CC(=O)c1ccc(N2CCN(C(=O)C(=O)c3cn(CC(=O)N4CCOCC4)c4ccccc34)CC2)cc1 | x | x | x | x | -1 | 4 | 4 | -7
CCC(C)c1ccc(NC(=O)C2CC3CCC2C3)cc1 (stereo not given) | x | x | i | u | -15 | 0 | -4 | -25
Cc1[nH]c2ccc(F)cc2c(=O)c1SC(F)(F)C(F)C(F)(F)F (stereo not given) | -8 | -2 | i | 1 | -21 | 1 | -12 | 8
O=C(Nc1ccc(Br)cc1)c1cc(-c2ccc3c(c2)OCO3)on1 | -4 | 7 | i | 20 | -19 | 5 | -1 | -8
O=c1cc(Nc2ccc3c(c2)OCO3)[nH]c(=O)n1-c1ccc(Br)cc1 | -5 | 25 | i | 4 | -2 | -4 | -9 | x

Next section, overlapping the part above by 2 compounds.
SMILES | PABP FP inh | eIF4H FP inh | Rce1 inhib | CSC inhib | Yeast UUG start | MT1-MMP act inh | MT1-MMP act inh RFP | HIV Env fusion | others
O=C(Nc1ccc(Br)cc1)c1cc(-c2ccc3c(c2)OCO3)on1 | -4 | 7 | i | 20 | -19 | 5 | -1 | -8
O=c1cc(Nc2ccc3c(c2)OCO3)[nH]c(=O)n1-c1ccc(Br)cc1 | -5 | 25 | i | 4 | -2 | -4 | -9 | x
Cc1ccc(N(C)S(=O)(=O)c2ccc3[nH]cc(C(=O)NCCCN4CCOCC4)c(=O)c3c2)cc1C | x | x | i | -9 | 5 | -2 | -5 | 12
Cc1ccc(S(=O)(=O)N2CCN(C(=O)CCC(=O)Nc3ccc(F)cc3F)CC2)cc1 | x | x | x | -23 | 19 | -4 | 1 | -1
OCC(C#CCN1CCCCC1)NCc1ccccc1 (stereo not given) | 8 | -2 | i | x | -12 | -2 | 0 | 19
S=C(NCC1CCCO1)c1ccc(Br)cc1 (stereo not given) | 6 | -3 | i | 3 | -20 | 2 | -1 | -17
C[C@@H]1CN([C@@H](C)CO)S(=O)(=O)c2ccc(Br)cc2O[C@H]1CN(C)C(=O)CN(C)C | x | x | x | x | -28&1 | -1 | 1 | -7[16.7 µM]
CC(=O)OC(C(=O)NC1CCCCC1)c1ccccc1Cl (stereo not given) | -8 | -8 | i | -9 | x | 0 | 3 | 7
CC(NC(=O)CSC(=S)N(C)C)C12CC3CC(CC(C3)C1)C2 (stereo not given) | -7 | -3 | x | x | x | -2 | -2 | x
O=S1(=O)CCC(N=Nc2c(O)n(Cc3ccccc3)c3ccccc23)C1 (stereo not given) | -2 | -7 | i | 11 | -19 | 1 | -6 | 19
CCOC(=O)N1CCN(Cc2nc3cc(NC(=O)c4ccco4)ccc3n2C)CC1 | -5 | -5 | i | 20 | -23 | 0 | -1 | -9
COc1ccc(S(=O)(=O)Nc2ccccc2C(=O)NCc2ccco2)cc1 | 6 | 0 | i | -7 | -26 | -1 | -3 | 9
Cn1nc(C(=O)OCC(=O)c2ccccc2)c2ccccc2c1=O | x | x | x | -14 | -13 | 5 | 4 | x
CCOC(=O)c1[nH]c2ccc(OC)cc2c1NC(=O)/C=C/c1ccc2c(c1)OCO2 | -4 | -9 | i | 16 | x | 3 | 3 | -12
COc1ccccc1CNC(=O)C1CCC(CNC(=O)[C@@H]2Cc3ccccc3CN2)CC1 (stereo not given in full) | 9 | 3 | i | -2 | -9 | 2 | -3 | -5
FC(F)(F)c1cccc(N2CCc3cn[nH]c32)c1 | -6 | 0 | i | 15 | -2 | 4 | 0 | x
COc1ccc(OCC(=O)Nc2ccc(N3CCOCC3)cc2)cc1 | -12 | -4 | i | -2 | -15 | -8 | -6 | -46
CC1CC(C)CN(S(=O)(=O)c2cc3c4c(c2)CCC(=O)N4CCC3)C1 (stereo not given) | x | x | i | x | -10 | 8 | -6 | 17
O=C(Nc1nccs1)c1ccc(Cl)c([N+](=O)[O-])c1 | -16 | -13 | i | 5 | -14 | -3 | -4 | -2
CC(C)CC#Cc1ccc2c(c1)O[C@H](CN(C)C(=O)Cc1ccncc1)[C@H](C)CN([C@H](C)CO)S2(=O)=O | x | x | x | x | 36&12&-6 | -1 | 1 | -51
CCOC(=O)Cc1csc(NC(=O)/C=C\c2ccccc2)n1 | 18 | 2 | i | -7 | x | -4 | -12 | 1
NC(=O)N1c2ccccc2CC(=O)c2ccccc21 | 21*! | 71*! | i | x | -8 | 4 | 8 | x | eIF4H FP inh retest=95*!;PABP FP inh retest=76*!
Oc1cc(NCCN2CCOCC2)cc2cccnc12 | x | x | x | x | -22 | -4 | 4 | 11
O=C1CC(N2CCN(c3ccc(Cl)c(Cl)c3)CC2)C(=O)N1 (stereo not given) | 9 | -12 | i | -13 | 3 | 5 | 1 | -93
CSCC[C@H](NC(=O)NC1CCCC1)C(=O)O | 8 | 9 | i | -17 | -9 | 3 | 2 | 1
COc1cccc(C(=O)N2CCN(Cc3cn[nH]c3-c3ccc(F)cc3F)CC2)c1 | 4 | -4 | i | -8 | x | -2 | -3 | 22
CC1(C)CC2(CCO1)OC(=O)CC2C(=O)Nc1ccccc1Cl (stereo not given) | -1 | -2 | i | -13 | -17 | 2 | 5 | 23
Cc1cccc(N=C2NC(=O)C(CO)(CO)S2)c1 | -3 | 2 | i | -18 | -5 | -3 | 3 | 15
CC(C)NC(NC(=O)Cc1ccccc1)C(Cl)(Cl)Cl (stereo not given) | -9 | 3 | i | -8 | -20 | 2 | 2 | x
CC(=O)N1CCC(C(=O)N2CCN(S(=O)(=O)c3cccs3)CC2)CC1 | 10 | 6 | i | 1 | -13 | 2 | 8 | 6
CCN1C(=O)/C(=C\c2ccc(-c3cccc(C(=O)OC)c3)o2)SC1=Nc1ccc(C(=O)O)cc1 | 9 | 26 | i | -8 | x | x | x | -4
CCC(C)(C)NC(=O)CCCSc1nc2ccccc2s1 | 19 | -8 | i | -5 | x | 0 | -3 | 17
O=C(NCCC1CCCCN1S(=O)(=O)c1ccc(F)cc1)C(=O)NCC1CCCO1 (stereo not given) | x | x | i | 1 | x | 3 | 4 | -5
Cc1cc([N+](=O)[O-])nn1CC(=O)NNC(=S)Nc1ccc([N+](=O)[O-])cc1 | -4 | 14 | i | x | -19 | 1 | 2 | x
Cc1noc(C)c1COc1ccccc1C(=O)N1CCN(c2cccc(Cl)c2)CC1 | x | x | x | 46 | 6 | 4 | -5 | -233
O=C1CCC(C(=O)Nc2nnc(C3CC3)s2)=NN1 | -2 | -5 | i | 1 | -6 | 4 | 7 | 2
O=S(=O)(/N=C(/Nc1ccc(F)cc1F)c1ccccc1)c1ccc(Br)cc1 | -2 | -4 | i | -5 | x | x | x | -7
Cn1c(=O)c2nc(-c3ccccc3)c(-c3ccccc3)nc2n(C)c1=O | x | x | i | 14 | x | 0 | -4 | -16
Cc1cc(OC(C)C(=O)Nc2ccc(S(=O)(=O)Nc3onc(C)c3C)cc2)cc(C)c1Cl (stereo not given) | 10 | -2 | i | 8 | -17 | 8 | 2 | -1
O=C(COc1c(Br)cc(Br)c2cccnc12)Nc1ccccc1F | -4 | 88 | i | -4 | x | 3 | 8 | -239 | eIF4H FP inh retest=20;PABP FP inh retest=45
COc1cc(C(=O)OCC(=O)NCCN2C(=O)CSC2=O)ccc1OCc1c(C)noc1C | -2 | -3 | i | -1 | 4 | -4 | 1 | -11
CCCn1cc2c(c1-c1ccc(C)cc1)c(=O)n(C)c(=O)n2C | -4 | -6 | i | 0 | -8 | 0 | 1 | -8
CCCNC(=O)Nc1ccc(C)cc1C | 17 | -3 | i | 6 | -8 | -3 | -2 | 0
COc1ccc(C(=O)COc2ccc(C)cc2NC(C)=O)cc1 | -4 | -9 | i | -5 | -11 | 13 | -9 | -127
CN(c1ccc(C(=O)Nc2cccc([N+](=O)[O-])c2)cc1)S(C)(=O)=O | -11 | -6 | i | 0 | x | 1 | -15 | -6
O=S(=O)(NCCc1ccccc1)c1cccc2cccnc12 | -6 | 10 | i | -23 | x | 0 | 4 | 10
O=[N+]([O-])c1cccc(CNCc2ccccc2)c1 | 3 | 1 | i | x | x | 1 | 5 | -3
O=C(CSc1nnc(CN2CCCC2)n1-c1ccccc1)c1ccc2c(c1)OCO2 | x | x | x | 43 | -7 | -5 | -4 | 1
COc1ccc(CNC(=O)[C@@H](NC(=O)C2CCN(C(=O)[C@@H](N)Cc3ccccc3)CC2)C(C)C)cc1 | 2 | -4 | i | -12 | -8 | -1 | 1 | x
COC(=O)C1=C(C)NC(C)=C(C(=O)OC)C1C(=O)OCC(=O)N1c2ccccc2CC1C (stereo not given) | 0 | -1 | i | -8 | -12 | 2&-1 | 2&4 | -26&-59
CC(C)c1ccc(-c2nnn(CC(=O)N3CCCCC3)n2)cc1 | -2 | -3 | i | -6 | -9 | 0 | -8 | -5
O=C1c2ccccc2S(=O)(=O)c2cc(N3CCN(c4ccccn4)CC3)ccc21 | x | x | i | 21 | 5 | -1 | -7 | 23
Cc1ccc(S(=O)(=O)N2CCOC23CCN(S(=O)(=O)c2cccs2)CC3)cc1 | x | x | i | -9 | -23 | 6 | -5 | 2
COCCN(CCOC)C(=O)c1c[nH]c2ccc(S(=O)(=O)N(C)c3ccc(F)cc3)cc2c1=O | 0 | 2 | i | -1 | 18 | 2 | -1 | -10
COCCNC(=O)CN(c1ccc(C)cc1)S(=O)(=O)c1ccc(SC)cc1 | 3 | -4 | i | -8 | 1 | 4 | 1 | x
Cc1nc(-c2ccccc2)sc1C(=O)CSc1ccccc1 | 10 | -9 | i | 7 | -9 | -2 | 4 | x
COc1cc2c(cc1OC)CN(CC(=O)Nc1cccc(C(F)(F)F)c1)CC2 | -1 | 1 | i | -9 | -15 | 1 | -6 | 19

Hits appear at their usual frequency; 2.9% or so of the library scored in one or more.
